# Bfl-1 A1 inh – inhibitors of the anti-apoptotic protein A1, read as caspase activation | MEF A1-2A-BIM cells, Caspase-Glo 3/7 luminescence, 3 h; percent of clofoctol response, vehicle zero | caspase activation, % (no concentration beside the values) | 0.066% of 330,000 active;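 active means over half of replicate activation scores above 10%, or exactly half above 10 with the replicate mean above 10; inconclusive means replicate mean below 10 yet half the replicates above 10; inactive means over half of replicates below 10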;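 further: wells of about 30 µL received 50 nL stock; many hits fall short of the cut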
# Calb FLC – C. albicans growth modulation with fluconazole. C. albicans CaCi-2 (fluconazole-resistant clinical isolate) + fluconazole, Alamar Blue growth, 48 h. AID 1979. 0.57% of 300,000 active. growth inhibition, % (no concentration beside the values);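 active means most replicates above 75%; inconclusive means exactly half above 75%; inactive means most below 75%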;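 further: all wells also contain fluconazole at 8 µg/ml as a sub-toxic cotreatment; 0% = median of DMSO wells and 100% = median of geldanamycin control wells; wells of about 8 µL received 7.5 nL stock; the first replicate is given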
# Ecoli rRNA inh – selective bacterial rRNA inhibition in E. coli | E. coli WT GFP vs humanized-ribosome RFP mutants, fluorescence, 24 h; hits give low values; DMSO median 0, no signal -100 | 1.6% of 350,000 active | GFP signal change (wild-type ribosome), % (test concentration not listed);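 active means significant combined selectivity score with lowered wild-type GFP, culture density cut under 30%, mutant RFP and density less affected; inactive means any of these conditions unmet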; further: one replicate is shown; some compounds called inactive have numbers as strong as hits
# Vif A3G – inhibitors of Vif binding to APOBEC3G peptide, primary screen, biochemical, TR-FRET, GST-Vif 1-94, biotin-A3G peptide, dose response retest (AID 1117319) | TR-FRET GST-Vif / biotin-A3G peptide binding; higher % means a stronger effect; test concentration not given here; strong numbers were not always called active | inhibition, %; hits with a dose series show IC50 in µM | 0.57% of 260,000 active;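 active means above the screen mean plus three standard deviations and confirmed in dose response; inconclusive means results disagree or hit not tested in dose response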;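 further: Vif residues 1-94 fused to GST binding biotinylated APOBEC3G peptide 110-148; 0% = full assay without inhibitor and 100% = GST in place of GST-Vif; retest series ran down from 100 µM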
# AF4-AF9 inh – MLL-AF4/AF9 protein interaction inhibition; AlphaScreen, biotin-AF4 peptide binding to FLAG-AF9; AID 651704; inhibition, % at 10 µM; 0.47% of 350,000 active; P42568;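 active means every replicate reaching a set inhibition limit, whatever the replicate mean, cut at about 25% in these data; inconclusive means mean inhibition reaches that limit but some replicates miss it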;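 further: 0% = plate neutral control median and 100% = total signal loss; the record names both 10 and 1 µM as test concentration; the first replicate is given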
# Target sequence (P42568 whole entry, looked up): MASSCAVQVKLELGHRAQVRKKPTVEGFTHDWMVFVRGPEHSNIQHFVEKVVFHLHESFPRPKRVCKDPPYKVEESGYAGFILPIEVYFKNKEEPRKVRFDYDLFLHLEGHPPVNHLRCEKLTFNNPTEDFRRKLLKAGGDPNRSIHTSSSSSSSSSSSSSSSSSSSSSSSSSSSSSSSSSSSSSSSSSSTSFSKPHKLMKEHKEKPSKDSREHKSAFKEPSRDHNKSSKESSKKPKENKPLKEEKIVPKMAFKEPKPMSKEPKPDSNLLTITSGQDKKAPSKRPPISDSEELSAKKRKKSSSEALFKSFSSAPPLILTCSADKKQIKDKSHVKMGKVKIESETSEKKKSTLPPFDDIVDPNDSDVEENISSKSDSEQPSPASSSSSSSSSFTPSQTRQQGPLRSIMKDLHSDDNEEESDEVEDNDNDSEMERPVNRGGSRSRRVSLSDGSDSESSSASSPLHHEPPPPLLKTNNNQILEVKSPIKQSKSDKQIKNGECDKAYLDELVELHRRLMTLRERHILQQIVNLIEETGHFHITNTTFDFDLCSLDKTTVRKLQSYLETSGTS
# Beta apoptosis – beta cell apoptosis inhibition. INS-1E cytokine-induced death, ATP luminescence, 48 h; percent of positive-control rescue, neutral wells zero. protection from apoptosis, % (concentration not given with the values). 0.8% of 300,000 active;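 active means all replicates at 75% or more, or half of them and the mean; inconclusive means half reach 75% but not the mean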;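 further: 0% = cytokine-treated negative control wells and 100% = positive control rescue; higher means more ATP so stronger rescue from cytokine killing; wells of about 40 µL received 100 nL stock; the first replicate is given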
# T cruzi inh – blocks replication of Trypanosoma cruzi. inhibition, % (concentration not given with the values). 1.4% of 300,000 active. AID 1885. T. cruzi beta-gal in NIH3T3, luminescence, 90 h;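 active means mean inhibition across valid replicates above about 55%, limit read from the data; inconclusive means mean below that limit but half or more replicates reach it; inactive means mean below it, under half of replicates reach it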;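 further: signal also drops with host cell toxicity which is not excluded here; 0% = plate median of DMSO wells and 100% = zero luminescence signal; higher percent means less beta-gal luminescence so fewer parasites; stock transfer was 50 nL into about 50 µL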
# RanGTP-Impb inh – disruptors of Ran-importin-beta complex formation – biochemical, FRET, CFP-Ran, YFP-importin-beta, homogeneous, primary screen. 1.1% of 300,000 active. inhibition, % (concentration not given with the values). AID 2216. cell-free CFP-Ran/YFP-importin-beta FRET ratio;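 active means most replicates above 15%; inconclusive means exactly half above 15%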;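 further: 0% = DMSO wells and 100% = Ran loaded with GDP instead of GTP; wells of about 40 µL received 100 nL stock; the first replicate is given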
# Ecoli rRNA inh OD600 – further read-out of Ecoli rRNA inh, marked with its call; OD600 change, %; measured here: OD600 growth;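 optical density of the mix in the first replicate; 0 = DMSO median and -100 = no signal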
# Ecoli rRNA inh RFP – further read-out of Ecoli rRNA inh, marked with its call; RFP signal change, %; measured here: RFP humanized mutant strains;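 first replicate; 0 = DMSO median and -100 = no signal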
# The depositor's hits bear a star; ? = inconclusive; / = no result given; & = joins results of further samples.
SMILES,Bfl-1 A1 inh,Calb FLC,Ecoli rRNA inh,Ecoli rRNA inh OD600,Ecoli rRNA inh RFP,Vif A3G,AF4-AF9 inh,Beta apoptosis,T cruzi inh,RanGTP-Impb inh
CN(CC(=O)NCCCc1ccccc1)S(=O)(=O)c1ccc(Br)cc1,-0.2,20,-9,-4,-13,/,-4.3,3,-1,0.0
Cc1ccccc1NC(=O)c1sc(Cl)nc1-c1ccccc1,-0.2,-9,/,/,/,1%,/,-3,-11,0.9
C=CCNc1nc2c3ccccc3n(C(C)=O)c2s1,0.3,-1,/,/,/,33%,/,0,-5,1.4
C/C(=N\NC(=O)c1cc2ccccc2cc1O)c1cc2ccccc2o1,-0.7,-4,12,19,9.3,17%,4.1,16,-2,?
C=C(C)C(=O)Nc1cccc(C2=NOC3(C2)C[C@H](C(N)=O)N(C(=O)c2ccccc2)C3)c1 (some centres undefined),0.9,-6,12,13,13,?,-14,1,-21,-5.6
COc1ccc(CC(=O)OCC(=O)Nc2cc(S(=O)(=O)N3CCOCC3)ccc2N2CCCC2)cc1,0.8,-13,2,-3,-1.1,8%,-0.7,-3,6,-1.2
CCN1CCN(Cc2coc3ccc(C)cc3c2=O)CC1,0.1,0,/,/,/,20%,/,-1,1,-1.1
CCOc1ccc(C(=O)NCC(=O)NC(C)c2ccc(-n3ccnc3)cc2)cc1OCC (centres undefined),0.3,4,3,-4,4.0,-1%,2.0,/,5,-3.0
COC(=O)c1ccc(NCCC(=O)O)cc1,-1.4,-7,3,10,0.8,5%,-4.8,/,-12,-2.6
O=C1CCCN1c1ccc(S(=O)(=O)NCCc2ccc(Cl)cc2)cc1,1.0,-4,-18,-28,3.8,1%,1.4,-1,-12,6.4
CCOc1ccccc1NC(=O)NC(=O)N(C)S(=O)(=O)c1ccc(C)cc1,0.1,8,-5,-1,1.0,0%,0.0,-1,14,1.5
Cc1ccc(C2=NS(=O)(=O)N(C)C(C(=O)NCc3ccccc3)=C2)cc1,-0.4,16,-5,-16,5.9,/,0.3,2,-2,3.8
Cc1ccc(NC(=O)C2C3CCCCC32)cc1[N+](=O)[O-] (centres undefined),-1.0,-23,-12,-11,-2.5,/,3.5,2,7,2.7
COC(=O)c1cccc(NC(=O)/C=C/c2ccc3c(c2)OCO3)c1,-2.1,-17,/,/,/,-3%,/,-6,10,2.0
O=Cc1ccc2cccnc2n1,0.4,-5,8,5,-4.5,1%,-1.8,-16,-16,1.0
Cc1ccc(NC(=O)Cn2cnc([N+](=O)[O-])c2)cc1C,0.1,0,11,0,2.1,3%,0.6,-2,2,-0.6
COCC1CCCN(C(=O)c2cc(COc3ccc4ncccc4c3)on2)C1 (centres undefined),0.3,6,-9,-19,-3.2,/,-1.7,72,-62,2.5
O=C(COc1ccccc1)NCC(=O)N/N=C/c1ccc(Br)cc1,0.1,3,7,15,2.3,/,-0.5,-2,11,0.5
O=C(CNC(=O)COc1ccccc1)NCCc1ccccn1,0.0,2,6,4,-0.7,-3%,0.8,1,-12,-0.7
Cc1ccsc1-c1n[nH]c(=S)n1CC(C)C,-0.1,7,/,/,/,6%,/,6,0,0.4
CCC1CCCCN1CCCNC(=O)c1cn(C)c2ccc(S(=O)(=O)N3CCOCC3)cc2c1=O (centres undefined),0.5,22,18,13,3.5,/,-1.2,-1,1,-2.0
CCOC(=O)c1c(OCCO)noc1N,-0.3,2,13,5,1.6,-2%,-0.6,-5,-8,-0.3
Cc1ccnc(NC(=O)c2cc([N+](=O)[O-])cc([N+](=O)[O-])c2)c1,0.5,38,18,13,-0.7,/,0.7,-5,60*,-1.4
CCCNC(=O)Nc1ccc2c(c1)N(C)C(=O)c1ccccc1S2,0.2,-5,-35,-37,-2.7,-18%,/,4,-4,-3.1
CC(Sc1nnc(-c2cccs2)n1Cc1ccccc1)C(=O)NCc1ccc2c(c1)OCO2 (centres undefined),-1.0,-16,/,/,/,3%,/,5,17,-1.7
CC1CC(C)CN(S(=O)(=O)c2ccc(NC(=O)C3CSC4(C)CCC(=O)N34)cc2)C1 (centres undefined),-0.5,-5,2,0,3.1,-1%,1.0,/,-7,1.8
O=S(=O)(c1cccc2nsnc12)N1CCc2ccccc2C1,0.2,18,/,/,/,-1%&7%,/,-8,2,-0.7
CCn1cc(S(=O)(=O)Nc2ncccn2)cn1,-0.2,1,12,13,2.9,/,-0.6,-4,-8,-6.2
C#Cc1ccc([C@@H]2C=C(C(=O)N3CCN(Cc4ccc5c(c4)OCO5)CC3)O[C@H](OCC)[C@H]2CCCO)cc1,-0.2,13,-4,1,19,-6%,2.8&3.2,-4,26,-0.8
Cc1cc(C)cc(NS(=O)(=O)c2ccc(Oc3ncc(C(F)(F)F)cc3Cl)cc2)c1,-0.3,28,/,/,/,3%,/,10,28,1.6
COc1cc2c(cc1OC)C(NC(=O)C(F)(F)F)C/C2=N\O (centres undefined),1.2,-3,8,6,2.8,-8%,0.7,-4,-14,-1.4
O=C(c1cc(-c2ccc(O)cc2)on1)N1CCN(c2ccc(F)cc2)CC1,-0.3,1,6,-36,1.2,/,-0.6,1,-6,-2.3
CC1CC(C)CN(C(=O)c2cccc(N3C(=O)c4ccccc4C3=O)c2)C1 (centres undefined),0.2,/,-5,7,0.6,2%,-4.0,-8,/,/
Cc1noc(C)c1S(=O)(=O)N1CCC(C(=O)N2CCN(Cc3ccc4c(c3)OCO4)CC2)CC1,-0.1,-3,/,/,/,11%,/,-5,6,-4.3
O=C1CCCC2=C1C(Cc1ccccc1)C1=C(CCCC1=O)O2,-0.2,2,/,/,/,11%,/,5,9,-7.4
O=C(CCN1CCc2ccccc2C1)c1ccc2c(c1)OCCO2,1.3,-1,/,/,/,-2%,/,-25,23,1.7
CCn1cc(CNC(=O)NC2CCCCC2)c(C)n1,1.3,-4,/,/,/,3%,3.1,-4,-13,0.7
O=C(O)c1cc(-c2cccs2)[nH]n1,0.9,-23,5,3,-1.9,2%,-1.2,/,-11,-2.0
COC(=O)[C@H](Cc1ccccc1)NC(=O)NCCc1ccc(S(N)(=O)=O)cc1,0.5,-6,/,/,/,-1%,/,-2,-9,-2.8
Cc1ccc(-c2ccnc3c(Br)c(C)nn23)cc1,0.8,33,4,3,-0.7,-12%,1.7,-4,-2,2.5
CCCNC(=O)Cn1c(=O)oc2ccccc21,-0.8,1,/,/,/,-1%,/,5,-4,-2.8
O=[N+]([O-])c1ccc(S(=O)(=O)NCCN2CCOCC2)cc1,-0.5,14,12,10,-1.6,/,-0.7,2,-6,8.0
COc1ccc([N+](=O)[O-])cc1NC(=O)c1cccs1,0.0,-1,2,-6,4.6,/,0.4,4,-4,0.8
CCOC(=O)CNS(=O)(=O)c1cc(-c2nnc(Nc3ccc4c(c3)OCO4)c3ccccc23)ccc1C,-1.0,-7,/,/,/,/,/,-2,11,-4.3
CCC(=O)Nc1ccc2c(c1)OCCO2,-0.3,-6,/,/,/,10%,/,4,-7,-3.0
O=C(O)C1C2C=CC(C2)C1C(=O)NCCCN1CCOCC1 (centres undefined),0.1,1,/,/,/,0%,/,-7,-7,0.0
O=C(O)C(Cc1ccccc1)N1C(=O)c2ccccc2C1=O (centres undefined),0.0,-37,/,/,/,6%,/,-16,-2,-0.8
COCCCNC(=O)CCCC(=O)NCCCOC,1.4,-13,/,/,/,-11%,/,-2,-18,-3.8
COc1ccc(COc2cc(-c3cccc(OC)c3)nc3ccc(N)cc23)cc1,1.2,-2,4,19,-3.6,/,8.0,36,20,2.7
Cc1ccc([N+](=O)[O-])cc1NC(=S)NC(=O)c1ccco1,-0.9,-3,/,/,/,/,/,/,-19,-0.8
Cc1cc(C(=O)NNc2ccc(F)cc2)no1,-0.4,-8,4,-5,-3.3,-3%,-2.0,-3,16,-0.4
CC(C)(C)c1nc2c(s1)CCc1onc(-c3ccc(Br)cc3)c1-2,0.6,8,5,9,4.3,/,-3.5,-4,-9,-1.0
Nc1ncc2c(n1)-c1ccoc1CC2,-0.2,-2,-2,5,3.8,0%,-1.2,-3,-16,-4.2
COc1cc(/C=C/C(=O)O)cc(S(=O)(=O)NCCO)c1OC,0.0,10,/,/,/,/,/,/,-25,2.0
Cc1ccccc1/C=C/c1nc2ccccc2c(=O)n1Cc1ccccc1,0.4,-4,/,/,/,3%,/,18,32,-7.8
O=C(NCc1cn2ccccc2n1)c1ccc(Br)o1,0.0,0,0,12,4.6,-2%,-3.8,-1,3,3.1
O=C(c1ccccn1)N(c1ccccc1)C1(C(=O)NC2CCCCC2)CCCCC1,1.3,21,7,6,-0.9,7%,0.9,-5,1,2.3
CC(Oc1ccccc1)c1ccnn1S(C)(=O)=O (centres undefined),0.0,0,/,/,/,11%,/,-5,-1,-3.5
O=C1CN(c2ccccc2F)C(=O)CN1c1ccccc1F,1.5,5,/,/,/,0%,/,3,-5,1.9
O=C(Nc1nccs1)c1cccc(S(=O)(=O)N2CCCC2)c1,-0.9,3,5,2,-0.8,/,-8.5,0,-20,6.4

# The listing continues:
SMILES,Bfl-1 A1 inh,Calb FLC,Ecoli rRNA inh,Ecoli rRNA inh OD600,Ecoli rRNA inh RFP,Vif A3G,AF4-AF9 inh,Beta apoptosis,T cruzi inh,RanGTP-Impb inh
CCOc1cc(/C=N/NC(=O)c2cc(-c3cccnc3)nc3ccccc23)ccc1O,0.0,3,7,12,1.1,5%,-1.7,-4,-10,-0.1
CC(C(=O)NC(C)(C)C)N1C(=O)c2cccc3cccc(c23)C1=O (centres undefined),-0.8,1,4,-6,-1.6,6%,-3.0,5,30,?
N/C(Cc1ccc([N+](=O)[O-])cc1)=N\OC(=O)C1CCCCC1,-0.2,-8,-1,-1,1.0,16%,0.4,2,4,-1.6
CC1=CC(C)(C)N(C(=O)CSc2nccn2C)c2cc(C)ccc21,0.4,0,/,/,/,30%,/,-6,8,2.0
Clc1ccc(CN2CCN(c3ncccn3)CC2)c(Cl)c1,-0.2,-6,-41,-68,-6.0,/,4.1,-1,-2,2.9
O=C(Cn1c(=O)n(-c2ccc(F)cc2)c(=O)c2sccc21)N1CCCC1,0.7,10,11,1,1.3,0%,2.9,-6,-23,-0.3
CCn1c(-c2ccccc2Cl)nn(CC(=O)Nc2ccc(OC)cc2)c1=S,0.1,13,/,/,/,7%,/,-8,3,1.9
Cc1nc(N)ncc1Sc1ccccc1,-0.3,0,5,-2,-3.5,-5%,-0.5,-5,-4,1.4
CC(NC(=O)CSc1nnc(-c2cc3cc(Cl)ccc3o2)n1C)c1ccccc1 (centres undefined),0.2,2,/,/,/,-2%,/,0,-3,7.7

# Only part of the results is shown; rates above refer to the full screens.
